NS1 function inh: inhibitors of influenza NS1 protein function; S. cerevisiae slowed by influenza A NS1, growth recovery by OD600; Potency, µM (highest dose often 46.1 µM), without a hit: at the top dose activity, positive = more growth; AID 2326; 270,000 compounds, 0.4% hits; also: actives are rising curves; nearly all actives have a fitted effect of over 50% in size
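In this qHTS, NS1 from influenza A is expressed in budding yeast, where it slows growth. Cells are switched from glucose to 2% galactose medium (pH 6.0, -URA), treated with compound, and growth recovery is read at OD600.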
MARV entry inh: inhibitors of Marburg virus binding or cell entry. Potency, µM (highest dose often 37.8 µM), for inactives: at the highest dose activity change, negative = inhibition, most hits filed as inhibitors. 300,000 compounds, 1.8% hits. Marburg virus pseudotyped entry inhibition, cell reporter; control for the full effect not named in the record; about a third of the inactives were read at about 46 µM. AID 540276; active = well fitted inhibition curve with a large enough effect; inconclusive = small, poorly fitted or top-dose-only effect, or effect the other way; inactive = flat fitted curve, though single readings scatter; tested in HEK293 cells; about a fifth of its hits are not listed in these tables; also: % is scaled to controls: 0 for no effect and ±100 for the full control effect; luciferase read-out
StopGo reporter: FMDV 2A StopGo reporter, luciferase signal; human cells with a luciferase reporter of 2A StopGo recoding; control for the full effect not named in the record; Potency, µM (doses to about 57.9 µM), for inactives: at the top dose signal change, negative = less light; 410,000 compounds, 1.2% hits; AID 1159524; active = well fitted falling curve with a large enough effect; inconclusive = small, poorly fitted or top-dose-only effect; inactive = no such curve, though single readings can be large or run the other way; tested in HEK293T cells; also: % is scaled to controls: 0 for no effect and ±100 for the full control effect; nearly all actives have a fitted effect of over 45% in size; luciferase light after 4 h
LASV entry inh: blocks Lassa virus binding to or entry into cells. Lassa virus pseudotype entry inhibition, cell reporter; control for the full effect not named in the record. Potency, µM (doses to about 37.9 µM), for inactives: top-dose activity change, negative = inhibition, most hits filed as inhibitors. 300,000 compounds, 1.2% hits; active means well fitted inhibition curve with a large enough effect; inconclusive means small, poorly fitted or top-dose-only effect, or effect the other way; inactive means flat fitted curve, though single readings scatter; tested in HEK293 cells; also: % is scaled to controls: 0 for no effect and ±100 for the full control effect; nearly all actives have a fitted effect of over 50% in size; luciferase read-out
Cruzain noTriton: inhibitors of Trypanosoma cruzi cruzain without detergent; P25779; 200,000 compounds, 2.3% hits; purified cruzain, Z-FR-AMC fluorescence, no detergent; Potency, µM, without a hit: max response, negative = inhibition, hits mostly inhibitors; active = well fitted curve in the direction sought with a large enough effect; inconclusive = small, poorly fitted or top-dose-only effect, or another doubt; inactive = no such curve, though single readings can be large; an effect the other way counts as inactive or inconclusive;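 also: plate controls were enzyme without inhibitor for no effect and buffer without enzyme for full effect; nearly all actives have a fitted effect of over 40% in size; top concentration of the series not given in the record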
Target sequence (P25779 123-467 limits assumed): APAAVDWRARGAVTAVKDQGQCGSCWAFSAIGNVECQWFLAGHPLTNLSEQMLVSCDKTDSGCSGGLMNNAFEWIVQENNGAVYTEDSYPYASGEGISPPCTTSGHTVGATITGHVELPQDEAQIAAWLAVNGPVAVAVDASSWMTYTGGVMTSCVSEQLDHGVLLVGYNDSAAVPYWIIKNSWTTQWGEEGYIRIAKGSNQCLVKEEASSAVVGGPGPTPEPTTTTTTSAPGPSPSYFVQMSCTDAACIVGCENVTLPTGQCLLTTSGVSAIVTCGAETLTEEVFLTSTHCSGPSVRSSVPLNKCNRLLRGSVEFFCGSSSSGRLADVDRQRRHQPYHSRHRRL
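Detergent-free condition (0.00005% Triton X-100) in acetate buffer pH 5.5 with DTT. 1.5 nM enzyme and compound were pre-mixed 15 min, then 2 uM Z-FR-AMC substrate added; reaction progress from fluorescence change between first and third reads (60 s).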
SARS PLpro yeast: blocks SARS-CoV papain-like protease in a yeast assay | S. cerevisiae expressing SARS-CoV PLpro, growth rescue; control for the full effect not named in the record | Potency, µM (titrated, usually from 32.9 µM), for the others: top-dose activity, positive = growth rescue | 330,000 compounds, 0.19% hits | AID 485353; also: 0% is about no effect; nearly all actives have a fitted effect of over 55% in size; growth read by luminescence after 48 h
Cruzain inh Det: inhibitors of Trypanosoma cruzi cruzain with detergent; P25779; purified cruzain, Z-FR-AMC fluorescence, 0.01% Triton; Potency, µM, for inactives: max response, negative = inhibition, most hits filed as inhibitors; 200,000 compounds, 0.43% hits; active = well fitted curve in the direction sought with a large enough effect; inconclusive = small, poorly fitted or top-dose-only effect, or another doubt; inactive = no such curve, though single readings can be large; an effect the other way counts as inactive or inconclusive;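 also: plate controls were neutral wells for no effect and buffer without enzyme for full effect; nearly all actives have a fitted effect of over 40% in size; top concentration of the series not given in the record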
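In this qHTS format, compounds are incubated with 1.5 nM cruzain for 15 min at room temperature before 2 uM Z-FR-AMC is added. Release of AMC is followed at 360/450 nm, and progress is taken as the 60 s fluorescence difference.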
RE007 growth inh: less growth of the S. pombe RE007 Vpr strain. Potency, µM (top dose mostly 92.2 µM), without a hit: top-dose activity change, negative = less growth. 360,000 compounds, 0.21% hits. S. pombe RE007 Vpr strain, BacTiter-Glo ATP luminescence, 24 h; control for the full effect not named in the record. AID 651644; active = well fitted falling curve with a large enough effect; inconclusive = small, poorly fitted or top-dose-only effect; inactive = no such curve, though single readings can be large or run the other way;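 also: % is scaled to controls: 0 for no effect and ±100 for the full control effect; nearly all actives have a fitted effect of over 50% in size; the assay follows cell death caused by Vpr and the record does not say whether a fall means rescue or toxicity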
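Fission yeast RE007 carrying one integrated HIV-1 vpr copy, seeded at OD 0.01 in PMG+AL medium with 23 nL pinned compound. Grown 24 h at 30 degrees; viability read by BacTiter-Glo luminescence after 5 min.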
Active calls of the source: *; ? = inconclusive; nt = no result given; & = joins results of further samples; [ ] = another dose, or the depositor's remark. Unless noted, calls follow the shape of the dose curve; as a rule, active means well fitted rising curve with a large enough effect; inconclusive means small, poorly fitted or top-dose-only effect; inactive means no such curve, though single readings can be large or run the other way. Potency is read from the fitted curve at half-maximal effect. Compounds were not picked by outcome; 4.6% or so of the library scored in one or more.

SMILES	NS1 function inh	MARV entry inh	StopGo reporter	LASV entry inh	Cruzain noTriton	SARS PLpro yeast	Cruzain inh Det	RE007 growth inh
COc1ccc(OC)c(NC(=O)CN(c2ccc(C)cc2)S(=O)(=O)c2c(C)n[nH]c2C)c1	15%	?	-16%	0%[46.1 µM]	nt	3%	nt	5%
COc1ccc(NC(=O)Nc2cccnc2)cc1	nt	-9%[46.1 µM]	48%[activator]	0%	nt	-9%	nt	-16%
CCCCCNC(=O)C1c2ccccc2Oc2ccccc21	-1%	nt	-2%	nt	nt	2%	nt	-7%
CCOc1ccc(-c2nnc(SCC(=O)Nc3cccc(C#N)c3)o2)cc1	nt	0%[46.1 µM]	-6%	27%[46.1 µM]	25µM*	nt	25µM*	nt
COc1cc(OC)c(NC(=O)CN2C(=O)CCn3nc(-c4cccn4C)cc32)cc1Cl	nt	nt	5%	16%[46.1 µM]	?	nt	-5.5%	nt
O=C(c1ccccc1)N1CCN(CCc2ccncc2)CC1	nt	24%[46.1 µM]	0%	-9%[46.1 µM]	-5%	nt	-0.8%	nt
Cc1cccc(C(=O)NC(=S)Nc2ccc(Cc3ccncc3)cc2)c1	-41%	-14%	-5%	-13%	2%	-17%	-3.2%	?
Cc1ccc(S(=O)(=O)NNC(=O)C(=O)NNc2ccccn2)cc1	-12%	-6%	-7%	-21%	-6%	-1%	0.7%	11%
CC1(C)C(c2ccccc2)=[N+]([O-])CN1O	3%	11%	-7%	9%	-3%	6%	3.7%	-5%
O=C(c1ccco1)n1nc(-c2ccccc2)nc1NCc1ccc(F)cc1	nt	?	16%	-4%[46.1 µM]	10%	nt	-1.2%	nt
COc1cc(OC)c(NC(=O)N2CC=C(c3c[nH]c4ccccc34)CC2)cc1Cl	nt	nt	-29%	-15%[46.1 µM]	20µM*	nt	-9.2%	nt
Cc1ccc(C2Nc3ccccc3NC3=C2C(=O)OC(C)C3)cc1 (stereo not given)	-4%	-2%	-1%	-31%	-9%	0%	-6.5%	?
CC(C)Cc1nc(SCC(=O)N2CCCC2)c2c(=O)n(C)c(=O)n(C)c2n1	-2%	nt	-8%	nt	nt	?	nt	-7%
COc1ccc(/C=N/Nc2nncc3ccccc23)c(OC)c1	0%	?	14%	?	-14%	0%	-13%	-9%
COc1cccc(NC(=O)C(C)N2C(=O)c3ccccc3S2(=O)=O)c1 (stereo not given)	nt	19%	-11%	-4%	nt	-7%	nt	3%
C#CCNc1cc(C)nc2ncnn12	3%	-4%	-13%	15%	9%	9%	4.2%	3%
Cc1ccc(C(CCNC(C)c2cccs2)c2ccco2)cc1 (stereo not given)	-8%	?	46%[activator]	?	nt	-1%	nt	-7%
O=C1CNC(=O)/C1=C\N1CCN(C(c2ccccc2)c2ccccc2)CC1	-65%	?	-23%	-28%	6%	-2%	0.9%	5%
Cn1c(=O)c2c(ncn2CC(=O)Nc2cccc(C(F)(F)F)c2)n(C)c1=O	nt	nt	-2%	-2%[46.1 µM]	-2%	nt	-8.8%	nt
COC(=O)CSc1nc2ccc(NC(=O)c3ccccc3C(=O)N3CCOCC3)cc2s1	-4%	-2%	-17%	-2%	7%	0%	-5.1%	-14%
Cc1ccccc1CN1N=C(/C=C/c2ccccc2)CCC1=O	nt	7%[14.2 µM]	?	7.9µM*	nt	-15%	nt	7%
CCC(=O)NC(=S)Nc1ccccc1F	-2%	?	-3%	1%	6%	14%	1.3%	-14%
COc1ccc(NS(=O)(=O)c2cc(NC(=O)c3nc4nc(C)cc(C)n4n3)ccc2C)cc1	nt	-2%[46.1 µM]	8%	-2%	nt	-7%	nt	2%
N#CC1=C(N)N=C(SCc2ccccc2)C(C(N)=O)C12CCCCC2 (stereo not given)	-11%	2%	-2%	-26%	-5%	1%	-1.1%	11%
C=CCSc1nc(-c2ccc(OC)cc2)c(C#N)c(=O)n1CC=C	-33%	?	?	?	nt	0%	nt	32%
Cc1ccc(C)c(N2CCN(C(=O)C3CCCN(S(=O)(=O)c4c(C)[nH]c(=O)[nH]c4=O)C3)CC2)c1 (stereo not given)	-1%	-15%	-8%	5%	?	10µM*	2.1%	-2%
COc1ccc(N(CC(=O)N/N=C/c2cccc(OC)c2OC)S(=O)(=O)c2ccccc2)cc1	-1%	nt	-25%	nt	nt	-1%	nt	0%
COc1ccc(NC(=O)NCc2ccco2)cc1OC	-5%	nt	0%	nt	nt	1%	nt	3%
CC(C)CCNC(=O)C1CCN(S(=O)(=O)c2ccc3c(c2)CC(C)N3C(=O)C2CC2)CC1 (stereo not given)	-6%	nt	-29%	nt	nt	-4%	nt	-10%
COc1ncnc2c1NC1=C(S2)C(=NCCC(=O)O)CC(C)(C)C1	-7%	6%	-25%	5%	-14%	-3%	-12%	-9%
CCN(CC)CCOC(=O)/C=C/c1ccccc1OC	7%	22%	5%	9%	-14%	-18%	-3.7%	-4%
Cc1cc(Br)cc2c1NC(=O)C2(c1c(C)n(C)n(-c2ccccc2)c1=O)c1c(C)n(C)n(-c2ccccc2)c1=O	-1%	10%	-16%	11%	?	1%	-2.2%	2%
NC(=S)Nc1ccc2cc[nH]c2c1	nt	-18%[46.1 µM]	15%	-17%	nt	2%	nt	2%
COC(=O)c1cc(S(=O)(=O)N2CCN(c3ccc(C(C)=O)cc3)CC2)c[nH]1	11%	nt	0%	nt	nt	-3%	nt	25%
CCC(C)c1ccc(NC(=O)COc2c(F)c(F)c(C(F)(F)F)c(F)c2F)cc1 (stereo not given)	-46%	-25%	?	1%	-1%	-41%	-4.4%	40%
CC(C)(C)NC(=O)NC(=O)COC(=O)Cn1c(C(F)(F)F)nc2ccccc21	4%	?	18%	?	-7%	-3%	0.3%	-2%
O=C(c1ccsc1)N1CCCC(N2CCN(c3cccc(Cl)c3)CC2)C1 (stereo not given)	-19%	?	-7%	?	nt	0%	nt	-9%
Cc1cc(OCC(=O)Nc2ccc(CN3CCOCC3)cc2)c2c(C)cc(=O)oc2c1	-7%	nt	-18%	nt	nt	0%	nt	-10%
Cc1ccc(CC(=O)Nc2c(C(=O)N3CCN(c4ccccc4)CC3)oc3ccccc23)cc1	nt	?	48%[activator]	-29%[46.1 µM]	10%	nt	-5.4%	nt
CCCc1cc(C(=O)NNC(=S)NCC)c2ccccc2n1	-20%	?	12%	-2%	-9%	8%	-1.8%	16%
c1ccc(CSc2nnc(-c3cccs3)n2Cc2ccco2)cc1	-64%	-15%	20%	10%	-1%	-20%	-6.6%	4%
O=C(Cc1cccc2ccccc12)N/N=C1\CCCc2ccccc21	1%	?	-24%	-23%	-7%	1%	-3.4%	14%
CCCCOc1ccc(C(=O)NCc2ccco2)cc1	-33%	?	8%	14%	-8%	-12%	0.3%	-1%
O=c1cc(-c2ccccc2)nc(SCc2nc(-c3cccc(C(F)(F)F)c3)no2)[nH]1	nt	nt	-9%	12%[46.1 µM]	-4%	nt	2.4%	nt
COc1ccc(OC)c(C2C(C(=O)c3sc(C)nc3C)=C(O)C(=O)N2CCN2CCOCC2)c1 (stereo not given)	0%	-11%&-11%[46.1 µM]	-14%	5%	3%	9%	-1.0%	-2%
c1ccc(CNc2ccc3c(c2)ncn3C2CCCCC2)nc1	-3%	-2%	nt	7%	-3%	-2%	2.9%	13%
Cc1ccc(CN2c3ccccc3S(=O)(=O)c3ccccc32)cc1	nt	nt	-21%	-22%[46.1 µM]	-10%	nt	-2.0%	nt
CSc1nc2ccc(NC(=O)C3=NNC(=O)CC3)cc2s1	0%	nt	54%	nt	nt	-1%	nt	11%
CCCn1c(SCC(=O)Nc2nonc2C)nnc1-c1ccoc1C	0%	24%[46.1 µM]	13%	-1%	-8%	-2%	-2.3%	-10%
O=C(c1ccc(Cl)cc1)C1CCCN(Cc2ccc3ncccc3c2)C1 (stereo not given)	-7%	?	?	nt	nt	-2%	nt	-15%
COc1ccc(C2/C=C\CN(S(=O)(=O)c3ccc(C)cc3)CC(=O)N2Cc2ccc(F)cc2)cc1 (stereo not given)	10%	-1%	14%	nt	nt	-5%	nt	3%
CCOC(=O)CCCCNC(=O)Nc1ccccc1	nt	7%[46.1 µM]	3%	23%[46.1 µM]	nt	-1%	nt	4%
COC(=O)C1=NN(c2ccc(Cl)cc2)C2C(=O)N(c3ccccc3OC)C(=O)C12 (stereo not given)	17%	-28%	-9%	-2%	?	9%	-17%	8%
CC(C)(C)c1ccc(S(=O)(=O)NNC(=O)C2CCN(Cc3cccc(F)c3)CC2)cc1	nt	?	-10%	-12%	nt	-2%	nt	14%
O=C(NCc1ccco1)C(c1ccncc1)N(C(=O)Cn1nnc2ccccc21)c1ccccc1F (stereo not given)	-1%	-6%[46.1 µM]	73%[activator]	nt	nt	-1%	nt	-8%
COC(=O)CN1C(=S)N(c2ccc(OC)cc2)C(=O)/C1=C/c1cccs1	8%	?	-19%	?	12%	-13%	1.6%	-3%
CN1CCN(CCCNc2c(C=O)c(=O)[nH]c3ccccc23)CC1	4%	1%	2%	1%	nt	-11%	nt	-3%
COc1ccc(CCNS(=O)(=O)c2c(C)nc3sc(C)cn3c2=O)cc1OC	nt	nt	-19%	?	1%	nt	-3.5%	nt
O=S1(=O)CCS(=O)(=O)C1c1ccccc1	nt	?	-26%	?	nt	nt	nt	-1%
O=C(NC1CCCC1)C(c1ccc(F)cc1)N(Cc1ccc(F)cc1)C(=O)CCl (stereo not given)	7%	-7%	?	-19%	2%	-20%	-3.4%	8%
Following part.
SMILES	NS1 function inh	MARV entry inh	StopGo reporter	LASV entry inh	Cruzain noTriton	SARS PLpro yeast	Cruzain inh Det	RE007 growth inh
O=S(=O)(NCCc1csc2nc(-c3ccc(F)cc3)nn12)c1ccc2c(c1)OCCO2	nt	nt	8%	0%[46.1 µM]	-28%	nt	-6.1%	nt
CC(=O)N(Cc1ccc(Br)cc1)c1ccccc1C(=O)O	1%	nt	-24%	nt	nt	0%	nt	10%
COC(=O)c1ccc2c(c1)N(CC(=O)Nc1cccc(C(F)(F)F)c1)C(=O)c1ccccc1S2	nt	nt	1%	-1%[46.1 µM]	-2%	nt	-0.9%	nt
CC1(C)S/C(=N/N=C/c2ccco2)NC1=O	-3%	?	8%	7%	-2%	24%	-6.5%	-21%
